CtBP-E1A inh – CtBP/E1A binding inhibition | AlphaScreen GST-E1A/His-CtBP binding, 1536-well; active compounds read low; control for the full effect not named in the record | activity change, % (concentration not given with the values) | hit rate 0.49% among 340,000 | AID 651724; in the data active means activity change below about -65%; inconclusive means about -30% to -65%; inactive means above about -30%; also: % is scaled to controls: 0 for no effect and ±100 for the full control effect
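Homogeneous bead-based format: GST-tagged E1A captured on glutathione donor beads, His-tagged CtBP on nickel acceptor beads; compounds precede bead addition by 2 h at 37 °C.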
TRPML1 inh – inhibitors of human TRPML1 channel. TRPML1-inducible cells, Ca2+ dye fluorescence, FDSS; active compounds read low; inhibition of EC80 agonist-evoked calcium signal. activity change, negative = inhibition, % (concentration not given with the values). hit rate 0.02% among 390,000. AID 624415; in the data active means activity change below about -50%; inconclusive means about -30% to -50%; inactive means above about -30%;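 also: stimulus is agonist 54-4 at its EC80 concentration; % is scaled to controls: 0 for no effect and ±100 for the full control effect; the text of the record puts the active cut at -80%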
Target sequence (Q9GZU1 whole entry, looked up): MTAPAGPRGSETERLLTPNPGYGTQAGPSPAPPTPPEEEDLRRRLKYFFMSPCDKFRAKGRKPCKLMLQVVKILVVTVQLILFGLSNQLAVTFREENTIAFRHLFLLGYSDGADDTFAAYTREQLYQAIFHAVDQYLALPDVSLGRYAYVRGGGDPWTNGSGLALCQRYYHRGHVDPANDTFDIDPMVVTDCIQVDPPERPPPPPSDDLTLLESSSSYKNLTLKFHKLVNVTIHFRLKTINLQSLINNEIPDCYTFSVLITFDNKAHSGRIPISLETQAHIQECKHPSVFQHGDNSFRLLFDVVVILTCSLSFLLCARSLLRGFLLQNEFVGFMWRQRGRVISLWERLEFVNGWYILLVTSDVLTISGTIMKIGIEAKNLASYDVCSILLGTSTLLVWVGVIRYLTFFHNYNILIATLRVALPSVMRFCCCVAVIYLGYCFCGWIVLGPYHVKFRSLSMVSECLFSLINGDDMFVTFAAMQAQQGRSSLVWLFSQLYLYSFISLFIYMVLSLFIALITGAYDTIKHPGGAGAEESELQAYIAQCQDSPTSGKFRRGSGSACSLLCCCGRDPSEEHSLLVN
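Calcium fluorescence in TRPML1-DL cells induced overnight with Tet: a 110 s read after compound pin addition, then a 110 s antagonist read after challenge with 54-4 at 4 uM final (EC80).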
TRPML1 agonist – activates the human TRPML1 channel; hit rate 0.12% among 410,000; TRPML1-expressing cells, Ca2+ dye fluorescence, FDSS; host cell line not named in the record; reference of the full effect not given here; activation, % (test concentration not listed); AID 624414; in the data active = activation above about 50%; inconclusive = about 30% to 50%; inactive = below about 30%; also: 0% is about no effect; the text of the record puts the active cut at 80%
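Kinetic FDSS Ca2+ read in Tet-induced TRPML1-DL cells (ABD Ca8 dye plus quencher, 45-90 min RT loading): baseline, then compound, then 110 s agonist window; EC80 agonist 54-4 at 4uM final added afterwards for a 110 s antagonist window.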
D2 agonist – agonists of human D2 dopamine receptor (beta-arrestin); DiscoveRx PathHunter D2 beta-arrestin, luminescence, 90 min; 100% = 57 uM dopamine signal; activation, % (test concentration not listed); hit rate 0.084% among 360,000; AID 624465; in the data active = activation above about 40%; inconclusive = about 15% to 40%; inactive = below about 15%; also: compound concentration not given in the record; the text of the record calls up to 30% inactive
Target sequence (P14416 whole entry, looked up): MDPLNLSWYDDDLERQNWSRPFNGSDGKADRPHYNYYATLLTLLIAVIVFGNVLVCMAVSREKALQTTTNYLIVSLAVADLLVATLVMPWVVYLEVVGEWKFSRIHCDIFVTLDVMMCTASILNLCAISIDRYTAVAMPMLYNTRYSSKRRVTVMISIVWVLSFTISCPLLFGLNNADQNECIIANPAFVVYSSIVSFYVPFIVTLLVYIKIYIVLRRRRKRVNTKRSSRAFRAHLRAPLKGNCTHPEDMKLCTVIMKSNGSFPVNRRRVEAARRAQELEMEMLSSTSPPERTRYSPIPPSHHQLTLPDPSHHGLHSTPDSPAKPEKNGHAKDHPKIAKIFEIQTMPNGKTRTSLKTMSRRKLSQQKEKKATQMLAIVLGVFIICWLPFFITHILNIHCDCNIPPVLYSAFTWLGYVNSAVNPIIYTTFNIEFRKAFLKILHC
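Agonist mode: compounds alone added to overnight-plated D2 PathHunter cells for 90 min at 37 C, with 57 uM final dopamine (EC100) defining full response. Beta-arrestin recruitment detected by chemiluminescent reagent, read after 1 h at ambient temperature.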
PINK1 modulator – changes PINK1 expression. PINK1 immunofluorescence, high-content cytometry, 24 h. Potency, µM (highest dose often 76.6 µM), inactives show top-dose activation (PINK1 increase), actives largely listed as activators. hit rate 0.2% among 410,000; active = well fitted activation curve with a large enough effect; inconclusive = small, poorly fitted or top-dose-only effect; inactive = flat fitted curve, though single readings scatter; cell line not stated here;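 also: potency is read from the fitted curve at half-maximal effect; % of control where 0% means no effect; nearly all actives have a fitted effect of over 65% in size; a mitochondrial uncoupler was the plate control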
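Fluorescence from anti-PINK1 antibody, together with nuclear and cell stains, was scanned on a laser-scanning cytometer. Before staining, stable-line cells were incubated 24 hours with compounds at 5 concentrations; primary antibody 12 h at 10 degrees C.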
Six1-Eya2 blk – Six1/Eya2 interaction inhibition; AlphaScreen GST-Six1/His-Eya2 binding, biochemical; active compounds read low; control for the full effect not named in the record; hit rate 0.56% among 360,000; Q15475+O00167; activity change, % (no concentration beside the values); in the data active = activity change below about -65%; inconclusive = about -30% to -65%; inactive = above about -30%; also: % is scaled to controls: 0 for no effect and ±100 for the full control effect
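Compounds are tested against tagged Six1 and Eya2 proteins bridged by glutathione donor and nickel acceptor beads; after a one-hour incubation at 37 °C without light, AlphaScreen emission is recorded.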
* hit, by the source's call; ? = inconclusive; · = not tested or not shown; & = joins results of further samples; [ ] = dose if it differs, or a comment.

#	molecule	CtBP-E1A inh	Six1-Eya2 blk	TRPML1 inh	D2 agonist	PINK1 modulator	TRPML1 agonist
1	Cc1nnc(NC(=O)c2ccc(-c3ccc(Cl)cc3)o2)s1	-3	2	-1	-4.0	7.4%	1.0
2	Cc1cc(OC(=O)c2c(Cl)cccc2Cl)nc(C)n1	-7	-3	-10	-0.4	-6.5%[38.3 µM]	-0.4
3	COCCn1c(SCC#N)nnc1-c1ccccc1O	6	3	14	-3.1	6.7%[38.3 µM]	0.6
4	O=C(NNC(=O)C1CCCCC1)c1ccc(Br)cc1	·	4	4	-1.3	1.3%	0.2
5	N/C(Cc1ccc([N+](=O)[O-])cc1)=N\OC(=O)Cc1ccc(Cl)cc1	-13	2	13	3.4	0.5%	1.3
6	COc1ccc(Br)cc1C(=O)NC(=S)Nc1ccc2[nH]c(=O)[nH]c2c1	4	7	-4	9.7	11%	0.5
7	COc1ccc(/C(O)=C2/C(=O)C(=O)N(CC3CCCO3)C2c2cccc(OC)c2)cc1 (stereo not drawn)	10	0	15	1.1	·	1.7
8	CCOCC(=O)OCC(=O)NC12CC3CC(CC(C3)C1)C2	0	-2	2	1.5	0.1%	-0.5
9	Cc1ccc(Cn2ncc3c(N4CCN(CC#N)CC4)ncnc32)cc1	11	-14	-3	1.5	0.0%	-0.2
10	CSc1ccc(S(=O)(=O)N(C)Cc2ccccc2)cc1	26	10	-19	-1.2	-0.3%	4.0
11	N#C/C(N)=C(/C#N)N=Cc1cccc(Cl)c1	-2	-29	16	-2.7	2.7%	0.2
12	Cc1nc(SCC(O)CCl)c([N+](=O)[O-])[nH]1 (stereo not drawn)	6	12	-9	-3.2	3.6%	-0.3
13	C[C@H](O)C#Cc1cnc2c(c1)C(=O)N([C@H](C)CO)C[C@@H](C)[C@H](CN(C)C(=O)Nc1ccc(C(F)(F)F)cc1)O2	-3	-1	3	-10	3.4%	0.0
14	Cc1ccc2oc(C(=O)NCc3ccc4c(c3)OCO4)c(C)c2c1	1	-11	25	-1.3	-0.8%	2.5
15	CCOC(=O)C1CCCCN1Cc1ccc(OC)c(OC)c1 (stereo not drawn)	0	-4	1	-5.3	0.1%	0.1
16	Cc1nn(C(C)C(=O)NCCc2cccs2)c(=O)c2nn(-c3ccccc3)c(C)c12 (stereo not drawn)	·	4	1	-0.6	-0.4%	0.7
17	Cc1c(C)n(C)c2ccc(C(=O)NCCCN3CCCC3)cc12	·	-14	11	-0.1	-0.1%	-0.7
18	Cc1ccc(S(=O)(=O)N(C)c2c(C)ccc(S(N)(=O)=O)c2C)cc1	10	-1	-13	-4.3	0.3%	-1.5
19	COc1ccc(Cl)cc1NC(=O)CN1C(=O)COc2ccc(S(=O)(=O)NC3CCCC3)cc21	·	·	5	·	3.2%	0.9
20	CCCCC1Cc2[nH]c(=S)[nH]c(=O)c2C(c2ccc(C(C)C)cc2)O1 (stereo not drawn)	9	7	·	·	-0.8%	-1.0
21	CCOC(=O)N/N=C/C=C/c1ccccc1	-3	8	-4	-2.7	-1.6%	-0.2
22	Cc1ccc(C(C(=O)NC2CCCCC2)N(CC2CCCO2)C(=O)CCCC(=O)Nc2ccccn2)cc1 (stereo not drawn)	0	-13	22	-6.1	0.1%	-1.7
23	O=C(Nc1cccc(S(=O)(=O)N2CCCCC2)c1)c1ccc(Cl)nc1	·	?	-12	-0.8	9.5%	-1.2
24	COCc1cccc(-c2csc(C(O)c3ccc(OC)cc3)n2)c1 (stereo not drawn)	0	16	·	2.1	-0.3%	-1.0
25	COc1cccc(C(=O)NNc2c3ccccc3nc3ccccc23)c1	?	?	-7	-2.6	5.6%	-0.4
26	O=C(O)CSCC(=O)N1CCN(c2cc(C(F)(F)F)nc3ccccc23)CC1	·	13	-14	1.2	0.7%	0.5
27	O=C1[C@H]2[C@H](C=CC[C@H]2C(=O)N2CCN(c3ccccc3)CC2)CCN1Cc1ccccc1	-1	8	-10	-0.7	-1.1%	-0.1&-0.7
28	NN/C(=C\[N+](=O)[O-])Nc1ccc(Cl)cc1	-6	-1	15	-1.0	6.9%	-0.3
29	CCOc1ccccc1N(CC(=O)OC)S(C)(=O)=O	22	5	7	0.5	-4.1%[38.3 µM]	-0.5
30	CCn1cc(CNC(=O)c2ccc3nc(Cc4ccc(OC)cc4)oc3c2)cn1	2	8	2	-0.6	0.9%	0.4
31	CCc1cccc(NC(=O)Cn2c(=O)n(Cc3ccccc3)c(=O)c3c2c2cc(OC)ccc2n3C)c1	·	·	8	·	0.7%	0.0
32	O=C(OCc1ccc(COC(=O)c2cccnc2Cl)cc1)c1cccnc1Cl	·	5	-9	5.9	11%	-0.6
33	O=C1NC(c2ccccc2)CCC1(Cl)Cl (stereo not drawn)	0	3	8	-5.8	-2.2%	-0.2
34	CCOC(=O)Cc1ccc(NC(=O)c2cccc([N+](=O)[O-])c2)cc1	·	-6	-10	1.4	-1.1%	3.5
35	O=C(OCC(=O)N1CCCC1)c1cnc(Cl)c(Cl)c1	-17	-11	25	-2.6	0.2%	0.5
36	COc1ccc(N2CCN(C(=O)Cn3c(=O)c4cccn4c4cccnc43)CC2)cc1	-2	-8	-4	-9.3	-0.3%	-1.3
37	Cn1ccnc1SCC(=O)Nc1cc(S(=O)(=O)N2CCOCC2)ccc1Cl	-2	-3	-3	-4.9	2.1%	0.2
38	COc1ccc(S(=O)(=O)NCCC(C)C)cc1C	-5	-1	-1	1.3	6.3%[38.3 µM]	0.3
39	CN1CCCC(OC(=O)c2ccc3c(c2)OCCO3)C1 (stereo not drawn)	7	3	-11	0.2	1.0%	0.3
40	C[C@H](CO)N1C[C@H](C)[C@@H](CN(C)C(=O)Nc2ccc(C(F)(F)F)cc2)Oc2ccc(NS(=O)(=O)c3ccccc3)cc2C1=O	8	23	-3	4.4	2.4%	-0.3
41	CCCC(=O)n1nc(-c2ccccc2)nc1N	4	2	13	-1.6	2.7%	-0.3
42	Cc1nonc1N1CCN(Cc2cn[nH]c2-c2ccc(F)cc2F)CC1	1	-3	4	3.2	-0.9%	0.2
43	COCCNc1oc(/C=C/c2ccc(F)cc2)nc1S(=O)(=O)c1ccccc1	15	5	11	-3.2	-0.4%	-1.1
44	COc1ccc(-n2nnnc2S(=O)(=O)CC(=O)N2CCCCC2)cc1	-1	3	5	-2.7	-0.3%	2.5
45	O=C1C2C3C=CC(CC3)C2C(=O)N1c1ccc(Br)cc1 (stereo not drawn)	-11	8	-14	-2.9	1.6%	-0.6
46	O=S(=O)(Nc1nnc(C2CCCCC2)s1)c1ccc(F)cc1	4	5	1	6.6	1.2%	1.1
47	Cc1ccc(C2=NNC3(CCOC(C)(C)C3)S2)cc1 (stereo not drawn)	?	?	-8	-7.7	1.0%	-0.5
48	Cc1ccc(-c2nc3ncccc3o2)cc1NC(=O)Cc1ccc(Cl)cc1	1	1	-2	-1.2	7.0%	-0.5
49	O=C(COc1ccc(F)cc1Cl)N(Cc1nnc(-c2ccccc2Cl)o1)C1CC1	-19	3	-6	1.0	0.3%	0.3
50	Cc1cccc(N2CCN(C(=O)Cn3c(=O)c4cccn4c4ccc(F)cc43)CC2)c1C	·	·	-19	·	-1.4%	0.4
51	COc1ccc(-c2nnc(NC(=O)C(C)C)o2)cc1	-6	-7	22	0.7	1.3%	-0.5
52	CSc1ccccc1NC(=O)CN(C)C(=O)c1c(C)nn(Cc2ccccc2)c1C	-3	8	-14	0.5	-0.7%	1.8
53	CC(=O)Nc1ccc(OCc2cnc(Cl)s2)cc1	6	-8	9	2.6	0.7%	0.3
54	CCOc1ccccc1NC(=O)Cn1c(=O)oc2cc(S(=O)(=O)NCc3ccccc3)ccc21	·	·	15	·	2.1%	0.5
55	COc1ccc(NC(=S)N/N=C2\CC(C)(C)Oc3ccc(O)cc32)cc1	?	?	15	-7.8	5.8%	2.5
56	Cc1ccc(NC2=C(Cl)C(=O)OC2OC(=O)c2ccco2)cc1C (stereo not drawn)	17	-1	-5	-1.0	0.6%	1.3

Later entries.
#	molecule	CtBP-E1A inh	Six1-Eya2 blk	TRPML1 inh	D2 agonist	PINK1 modulator	TRPML1 agonist
57	COc1cccc(NC(=O)CN(C)C(=O)CC2Sc3ccccc3NC2=O)c1 (stereo not drawn)	-2	4	0	-5.1	0.1%	2.0
58	O=C(COC(=O)/C=C/c1ccccc1[N+](=O)[O-])Nc1ccc(OC(F)F)cc1	-4	0	6	0.5	8.0%	2.7
59	O=C(CSc1nccn1Cc1ccc(F)cc1)NC1CCCC1	-4	3	42&1	2.2	0.5%&10%	-0.6&0.7
60	CCn1c(C(O)c2cc(OC)ccc2OC)nc2ccccc21 (stereo not drawn)	4	-1	3	1.8	-0.4%	0.4
61	CCCCCCC#Cc1cncc(C(=O)NNC(=O)Nc2cc(Cl)cc(Cl)c2)c1	4	-4	0	1.9	1.3%	0.4
62	COc1ccc(OC)c(/C=N/NC(=O)c2cccc3ccccc23)c1	-1	8	27	6.0	9.1%	0.2
63	NC(=O)COC(=O)c1cccc2c1-c1ccccc1C2=O	?	?	-13	2.1	0.9%	0.0
64	Cc1ccc(C)c(C(=O)COC(=O)c2n[nH]c3ccccc23)c1	-1	-8	-1	-1.5	0.9%	1.4
65	O=C(c1ccc(-n2cnnn2)cc1)N1CCN(C(c2ccccc2)c2ccccc2)CC1	2	-10	-3	-1.3	-2.0%	-0.9
66	COc1cc2c3c(c1)c(N=NC(N)=S)c(O)n3C(C)(C)C=C2C	-7	-1	-6	-8.1	11%	0.8
67	CCCC(=O)Nc1ccc2nc(C)n(Cc3ccccc3Cl)c(=O)c2c1	-8	-1	-13	-3.2	2.0%	-0.1
68	O=C1COc2ccc(S(=O)(=O)NCc3ccc(Cl)cc3)cc2N1	·	1	0	4.3	1.2%	-0.4
69	CN(CC(=O)NC(=O)Nc1ccccc1F)Cc1ccccc1F	6	2	2	2.2	-2.3%	1.4
70	Cc1cccc(NC(=O)CN2CCN(C(=O)CNC(=O)c3ccc(-c4ccccc4)cc3)CC2)c1C	-11	-3	0	-1.1	5.5%	0.0
71	O=C(CCCc1c[nH]c2ccccc12)Nc1ncccc1O	-11	-17	3	2.0	0.2%	0.7

Screening results: PubChem, National Center for Advancing Translational Sciences (NCATS)

Rows were taken by chance. Share with any hit: about 1%.
